Screening results (PubChem BioAssay)
Marburg entry inh – inhibitors of Marburg virus binding or cell entry. Marburg virus pseudotyped entry inhibition, cell reporter; control for the full effect not named in the record; about a third of the inactives were read at about 46 µM. Potency, µM (doses to about 37.8 µM), for the others: at the highest dose activity change, negative = inhibition, most hits filed as inhibitors. 1.8% of 300,000 active. AID 540276; active = well fitted inhibition curve with a large enough effect; inconclusive = small, poorly fitted or top-dose-only effect, or effect the other way; inactive = flat fitted curve, though single readings scatter; tested in HEK293 cells; about a fifth of its hits are not listed in these tables; further: on the % scale 0 is the no-effect control and ±100 the full control effect; luciferase read-out
SARS PLpro yeast – inhibitors of SARS-CoV papain-like protease in yeast; S. cerevisiae expressing SARS-CoV PLpro, growth rescue; control for the full effect not named in the record; 0.19% of 330,000 active; Potency, µM (titrated, usually from 32.9 µM), inactives show at the highest dose activity, positive = growth rescue; AID 485353; further: 0% is about no effect; nearly all actives have a fitted effect of over 55% in size; growth read by luminescence after 48 h
RE007 growth inh – less growth of the S. pombe RE007 Vpr strain. S. pombe RE007 Vpr strain, BacTiter-Glo ATP luminescence, 24 h; control for the full effect not named in the record. Potency, µM (titrated, usually from 92.2 µM), for the others: at the highest dose activity change, negative = less growth. 0.21% of 360,000 active. AID 651644; active = well fitted falling curve with a large enough effect; inconclusive = small, poorly fitted or top-dose-only effect; inactive = no such curve, though single readings can be large or run the other way;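 further: on the % scale 0 is the no-effect control and ±100 the full control effect; nearly all actives have a fitted effect of over 50% in size; the assay follows cell death caused by Vpr and the record does not say whether a fall means rescue or toxicity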
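Fission yeast strain RE007, carrying one chromosomally integrated HIV-1 vpr copy, was seeded at OD 0.01 in PMG+AL medium with 23 nL pinned compound. After 24 h at 30 °C and 99% humidity, viability was read by BacTiter-Glo luminescence.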
NS1 function inh – inhibitors of influenza NS1 protein function; Potency, µM (top dose mostly 46.1 µM), without a hit: at the top dose activity, positive = more growth; S. cerevisiae slowed by influenza A NS1, growth recovery by OD600; 0.4% of 270,000 active; further: actives are rising curves; nearly all actives have a fitted effect of over 50% in size
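Recovery from NS1-induced slow growth read by OD600 in budding yeast switched to galactose assay medium (pH 6.0, -URA) at 1:100 dilution. Compound 23 nl per well; the matching strain lacking NS1 serves as control.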
Cruzain noTriton – inhibitors of Trypanosoma cruzi cruzain without detergent | purified cruzain, Z-FR-AMC fluorescence, no detergent | Potency, µM, for inactives: max response, negative = inhibition, most hits filed as inhibitors | 2.3% of 200,000 active; active means well fitted curve in the direction sought with a large enough effect; inconclusive means small, poorly fitted or top-dose-only effect, or another doubt; inactive means no such curve, though single readings can be large; an effect the other way counts as inactive or inconclusive;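 further: plate controls were enzyme without inhibitor for no effect and buffer without enzyme for full effect; nearly all actives have a fitted effect of over 40% in size; top concentration of the series not given in the record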
Target sequence (P25779 123-467 limits assumed): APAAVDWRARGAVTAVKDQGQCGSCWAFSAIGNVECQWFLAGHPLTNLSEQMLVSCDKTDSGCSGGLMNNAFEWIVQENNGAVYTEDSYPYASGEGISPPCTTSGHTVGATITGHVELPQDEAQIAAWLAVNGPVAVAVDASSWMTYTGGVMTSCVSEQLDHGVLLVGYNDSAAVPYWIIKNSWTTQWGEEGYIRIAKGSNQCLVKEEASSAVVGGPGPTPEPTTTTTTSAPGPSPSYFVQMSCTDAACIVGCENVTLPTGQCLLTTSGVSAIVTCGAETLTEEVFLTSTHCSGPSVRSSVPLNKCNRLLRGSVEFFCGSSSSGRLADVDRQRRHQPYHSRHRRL
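Purified cruzain at 1.5 nM, pre-incubated 15 min with compound at room temperature in 100 mM sodium acetate pH 5.5, 5 mM DTT, 0.00005% Triton X-100. Reaction started with 2 uM Z-FR-AMC; AMC fluorescence increase over 60 s gives rate.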
Lassa entry inh – blocks Lassa virus binding to or entry into cells; Potency, µM (highest dose often 37.9 µM), for the others: at the highest dose activity change, negative = inhibition, most hits filed as inhibitors; Lassa virus pseudotype entry inhibition, cell reporter; control for the full effect not named in the record; AID 540256; 1.2% of 300,000 active; active means well fitted inhibition curve with a large enough effect; inconclusive means small, poorly fitted or top-dose-only effect, or effect the other way; inactive means flat fitted curve, though single readings scatter; tested in HEK293 cells; further: on the % scale 0 is the no-effect control and ±100 the full control effect; nearly all actives have a fitted effect of over 50% in size; luciferase read-out
Cruzain Triton – cruzain (T. cruzi) inhibition with detergent; purified cruzain, Z-FR-AMC fluorescence, 0.01% Triton; Potency, µM, for the others: max response, negative = inhibition, usual class: inhibitors; 0.43% of 200,000 active; active means well fitted curve in the direction sought with a large enough effect; inconclusive means small, poorly fitted or top-dose-only effect, or another doubt; inactive means no such curve, though single readings can be large; an effect the other way counts as inactive or inconclusive;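 further: plate controls were neutral wells for no effect and buffer without enzyme for full effect; nearly all actives have a fitted effect of over 40% in size; top concentration of the series not given in the record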
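Detergent-containing arm of a paired screen for aggregation-based inhibition: 0.01% Triton X-100 present. Cruzain at 1.5 nM cleaved 2 uM Z-FR-AMC at pH 5.5 with 5 mM DTT; AMC fluorescence gain over 60 s measured activity.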
StopGo reporter – lowers the luciferase signal of an FMDV 2A StopGo reporter; human cells with a luciferase reporter of 2A StopGo recoding; control for the full effect not named in the record; Potency, µM (titrated, usually from 57.9 µM), without a hit: top-dose signal change, negative = less light; 1.2% of 410,000 active; active = well fitted falling curve with a large enough effect; inconclusive = small, poorly fitted or top-dose-only effect; inactive = no such curve, though single readings can be large or run the other way; tested in HEK293T cells; further: on the % scale 0 is the no-effect control and ±100 the full control effect; nearly all actives have a fitted effect of over 45% in size; luciferase light after 4 h
Numbers without * were called inactive; ? = inconclusive; . = not tested or not shown; & = joins results of further samples; [ ] = another dose, or the depositor's remark. Unless noted, the call rests on the fitted dose curve; in most records, active means well fitted rising curve with a large enough effect; inconclusive means small, poorly fitted or top-dose-only effect; inactive means no such curve, though single readings can be large or run the other way. Potency means the concentration at half of the fitted maximal effect. The order is random, and some 4.6% of all compounds hit somewhere here.

SMILES	Marburg entry inh	SARS PLpro yeast	RE007 growth inh	NS1 function inh	Cruzain noTriton	Lassa entry inh	Cruzain Triton	StopGo reporter
Nc1ccccc1SC1CC(=O)N(c2ccc3c(c2)OCCO3)C1=O (stereo not drawn)	?	1%	3%	3%	.	15%	.	74%[activator]
O=C(Cc1ccc(-n2cccc2)cc1)NC1CCCCC1	-26%	-3%	2%	-6%	?	2%	2.4%	-19%
Cc1ccc(-n2nnnc2CNC(=O)c2ccc(Br)o2)cc1C	-7%[46.1 µM]	-5%	3%	-1%	.	20%[46.1 µM]	.	8%
CCN(CC)S(=O)(=O)c1cccc(C(=O)Nc2ccccc2C(=O)Nc2ccc(OC)cc2)c1	.	.	.	.	14%	?	-4.6%	7%
Nc1nc(SCn2nnc3ccccc3c2=O)n[nH]1	.	1%	12%	11%	.	.	.	-9%
Cn1cccc1-c1cc(C(=O)N/N=C/c2cc(Br)ccc2O)[nH]n1	?	16%	4%	23%	.	?	.	-13%
CCc1nn(CC(=O)NC2CC2)c(=O)c2cc3ccccc3n12	15%[46.1 µM]	.	.	.	4%	.	6.8%	-13%
CCN(CC(=O)Nc1ccc(N2CCOCC2)cc1)C(=O)c1ccc(C(F)(F)F)cc1	?	0%	2%	2%	.	1%	.	10%
CSC1=N/C(=C\c2ccc(C)cc2)C(=O)S1	?	1%	-20%	0%	-2%	0%	-1.9%	-21%
CN(CC(=O)Nc1cccc(F)c1)C(=O)CNC(=O)Cc1cccc2ccccc12	5%	1%	4%	.	.	5%	.	-18%
Cc1ccc(C)c(S(=O)(=O)N2CCN(C(=O)Cc3ccccc3)CC2)c1	-7%[46.1 µM]	-4%	1%	.	.	?	.	-15%
COc1cccc(C2c3[nH]c4ccccc4c3CCN2Cc2cccc(C)n2)c1 (stereo not drawn)	.	-1%	7%	-1%	.	.	.	-7%
CCC(c1nnnn1Cc1ccco1)N1CCC(C(N)=O)CC1 (stereo not drawn)	4%	-4%	4%	-1%	11%	18%	5.5%	-9%
NC(=O)[C@@H]1CCCN1Cc1c(C(=O)N2CCN(C3CCCCC3)CC2)nc2ccccn12	-3%	26%	-8%	14%	.	14%	.	-9%
C/C(O)=C(/C#N)c1nc2ccccc2[nH]1	4%[46.1 µM]	6%	10%	-10%	-5%	6%	2.7%	-13%
CCOc1cc(CNc2ccc(N3CCN(C(C)=O)CC3)cc2)cc(Br)c1OC	-5%	29%	-15%	-8%	?	-12%	-4.1%	-27%
Nn1c(SCc2ccc(C(=O)O)cc2)nnc1-c1ccc(Cl)cc1Cl	.	1%	1%	-5%	.	.	.	9%
CC(OC(=O)CCCN1C(=O)c2ccccc2C1=O)C(=O)Nc1ncc(Cl)cc1Cl (stereo not drawn)	2%&2%	0%	-1%	5%	-1%	?	-3.0%	-14%
Cc1snc(SCC(=O)c2ccc(Cl)cc2)c1C#N	?	-1%	-2%	11%	2%	25%	-3.9%	51%[activator]
Cn1c(=O)c2c(n3c4ccccc4nc13)NC(=O)CC2c1ccccc1F (stereo not drawn)	.	.	.	.	0%	-14%[46.1 µM]	1.8%	-16%
CNC(=O)CN1C(=O)COc2ccc(S(=O)(=O)N3CCC(C)CC3)cc21	-1%[46.1 µM]	.	.	.	-5%	21%[46.1 µM]	0.3%	0%
COc1ccc(NC(=O)CN(C)C2CCCCC2)cc1Cl	.	1%	-11%	5%	.	.	.	-18%
CC1CCN(C(=O)CSc2nc3ccccc3s2)CC1	-6%	-1%	-10%	-15%	-5%	21%	-5.0%	39%[activator]
Cc1cc(C)n(CC(O)COc2ccc(Cl)cc2Cl)n1 (stereo not drawn)	-1%[46.1 µM]	-4%	-3%	-15%	.	10%[46.1 µM]	.	-6%
CCOC(=O)c1sc(NC(=O)CSc2nnnn2-c2ccc(C)cc2C)nc1C	0%&0%	-20%	-2%	-3%	-16%	-9%	1.6%	-8%
COc1cc(/C=N/NC(=S)NCC2CCCO2)cc(OC)c1OC (stereo not drawn)	-13%[46.1 µM]	2%	-5%	2%	.	-19%	.	-18%
Cc1ccc2[nH]c(C)c(/C=N/Nc3nc4ccccc4s3)c2c1	?	-29%	-3%	10%	-2%	3%	-10%	-21%
Cc1sc2nc(NCCO)[nH]c(=O)c2c1C	.	-4%	-7%	1%	-4%	.	-0.5%	6%
CC1(NC(=O)C23CC4CC(CC(C4)C2)C3)CCS(=O)(=O)C1 (stereo not drawn)	-2%	-2%	3%	-3%	18%	-4%	7.1%	-8%
CN(C)CC1CSCCC1(O)c1ccc(Cl)cc1 (stereo not drawn)	7%[46.1 µM]	-2%	-9%	-6%	-11%	-3%	0.4%	-14%
CC(C)Oc1ccc(C(=O)Nc2nnc3n2CCS3)cc1	.	.	.	.	-6%	13%[46.1 µM]	0.4%	5%
O=C(N/N=C/c1ccncc1)c1cc([N+](=O)[O-])cc([N+](=O)[O-])c1O	19%	-1%	41%	2%	-3%	4%	-17%	13%
Cc1ccc(NC(=O)NC(=O)CN2C(=O)NC3(CCc4ccccc43)C2=O)c(C)c1 (stereo not drawn)	-6%	-1%	-6%	-19%	?	-24%	-6.7%	-11%
Cn1c(C2=C(O)CN(c3ccc4c(c3)OCCO4)C2=N)nc2ccccc21	17%	-5%	-6%	1%	-13%	20%	1.5%	.
CN(C)c1cc2c(cc1NS(=O)(=O)c1ccccc1)n(C)c(=O)n2C	-4%&-4%[46.1 µM]	-1%	-1%	5%	-5%	8%&15%[46.1 µM]	-0.7%	-9%&-2%
COc1ccc(CCNc2nc(C)nc3c2nnn3Cc2ccccc2)cc1OC	.	0%	-6%	10%	.	.	.	-30%
COc1ccc(C)c2sc(NC(=O)c3ccc(S(=O)(=O)N4CCCC4)cc3)nc12	.	.	.	.	-14%	?	2.2%	-20%
CCOc1ccc2c(c1)sc1nc(=O)n(-c3ccc(Cl)c(Cl)c3)c(=O)n12	-2%[46.1 µM]	.	.	.	2%	26%[46.1 µM]	-1.0%	-11%
Cc1cc(C)c2c(CC(=O)Nc3ccc(S(=O)(=O)Nc4ncccn4)cc3)coc2c1	?	.	.	.	?	-13%[46.1 µM]	-8.6%	-13%
CC(C)NC(=O)c1cc2nc(-c3ccco3)cc(C(F)(F)F)n2n1	-5%	-3%	-16%	-9%	10%	2%	2.2%	.
Cc1ccc2onc(CNC(=O)Nc3cc(F)ccc3F)c2c1	.	.	.	.	9%	-24%[46.1 µM]	-8.0%	30%[activator]
Cc1c(-c2ccccc2)c(P(=O)(N2CCOCC2)N2CCOCC2)c2ccccn12	13%	-4%	-8%	-4%	13%	7%	-16%	.
CSCCC(NC(=O)/C(=C/c1ccc(F)cc1)NC(C)=O)C(=O)O (stereo not drawn)	-4%[46.1 µM]	0%	-4%	1%	.	14%	.	4%
Cc1ccccc1C(=O)NC1CCCCCCC1	.	-5%	-15%	0%	.	.	.	48%[activator]
Cc1cccc(OCC(O)CN2CCN(CCN3C(=O)c4cccc5cccc(c45)C3=O)CC2)c1C (stereo not drawn)	?	0%	-2%	5%	.	?	.	-25%
NNC(=O)c1cc(C23CC4CC(CC(C4)C2)C3)nc2ccccc12	.	2%	-2%	19%	.	.	.	-10%
CO/N=C/NC(=O)c1c(OC)ccnc1Oc1cccc(C(F)(F)F)c1	9%	2%	10%	6%	3%	10%	1.2%	.
Cc1ccccc1OCC(=O)Nc1ccccc1OCc1cc(=O)n2ccccc2n1	.	.	.	.	-3%	11%[46.1 µM]	4.5%	13%
O=C(CSC1=NCCS1)Nc1ccc2ccccc2c1	19%[46.1 µM]	1%	17%	11%	.	-26%	.	15%
Cc1nn(C)cc1C1Nc2ccccc2C(=O)N1O (stereo not drawn)	4%	5%	17%	3%	-4%	3%	-4.2%	21%
Following part.
SMILES	Marburg entry inh	SARS PLpro yeast	RE007 growth inh	NS1 function inh	Cruzain noTriton	Lassa entry inh	Cruzain Triton	StopGo reporter
c1ccc(-n2ncc(-c3nn[nH]n3)n2)cc1	10%	-3%	-3%	3%	-13%	11%	2.4%	-7%
COc1cccc(NC(=O)CSc2nnc(NC(=O)C3CC3)s2)c1	-13%[46.1 µM]	-11%	4%	5%	.	0%	.	29%
Cc1ccc(NC(=O)CCCNC(=O)c2ccc(Cl)cc2)nc1	?	4%	-9%	0%	.	10%[46.1 µM]	.	21%
Cc1ccc(-n2c(Cc3cccn3C)nnc2SCC(=O)N2CCN(c3ccccc3)CC2)cc1	-3%&-15%	-8%	-3%	?	18%	-28%[14.3 µM]	2.6%	1%
O=C(O)CC(NC(=O)C1CCCCC1)c1cc([N+](=O)[O-])ccc1Cl (stereo not drawn)	?	3%	-6%	.	.	0%[46.1 µM]	.	1%
COc1ccc(O[C@H]2C=C[C@@H](c3ccccc3)O[C@@H]2COC(=O)CCC(C)=NO[C@@H]2O[C@H](COC(C)=O)[C@@H](OC(C)=O)[C@H](OC(C)=O)[C@H]2OC(C)=O)cc1	-23%	4%	.	?	?	-28%	-0.4%	.
CCS(=O)(=O)c1ccc(O)c(NC(=O)NC2CCCCC2)c1	21%[46.1 µM]	0%	1%	-2%	.	6%	.	28%
COc1ccc(/C=N/NC(=O)CC2N=C(Cc3ccccc3)NNC2=O)cc1OC (stereo not drawn)	17%[46.1 µM]	-2%	15%	6%	-6%	-6%[46.1 µM]	-3.0%	-9%
CC(=O)Cn1ncc(N2CCOCC2)c(Br)c1=O	-4%[46.1 µM]	1%	9%	4%	.	15%[46.1 µM]	.	14%
COc1ccc(C(CNC(=O)c2cccc(S(=O)(=O)Nc3cccc(C)c3)c2)N2CCOCC2)cc1 (stereo not drawn)	?	0%	-16%	.	.	-7%	.	35%[activator]
Clc1ccc(-c2nc(/C=N/N3CCOCC3)c3ccccn23)cc1	?	1%	3%	.	.	-18%[46.1 µM]	.	-7%
COc1ccc(C(=O)Nc2cc(C(C)=O)c(C)oc2=O)cc1	2%[46.1 µM]	-3%	13%	-4%	.	?	.	18%
Cc1ccc(/C=N/NC(=O)c2cc3c(ccc4ccccc43)o2)cc1[N+](=O)[O-]	1%	-8%	-4%	-2%	6.3µM*	-16%	-2.5%	-12%
O=C1CCC(C(=O)O)(c2ccccc2)C1 (stereo not drawn)	-8%	9%	.	-3%	-1%	.	-1.7%	.
